Compound activity (PubChem BioAssay)
Sa helicase inh: S. aureus DNA helicase inhibition; 120,000 compounds, 0.05% hits; inhibition, %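 (tested at about 80 µM)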; purified S. aureus helicase, fluorescence unwinding assay; about half of the hits fall short of the stated cut;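 active = both duplicates at 50% or more, or one of them with a favoured structure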;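 note: 0% = mean of negative control wells and 100% = mean of positive control wells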
MgrA-DNA mod: alters Staphylococcus aureus MgrA binding to DNA; fluorescence polarization; inhibition, %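 (about 10 µg/mL by stock and volumes)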; 84,000 compounds, 0.13% hits; AID 602314;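 active = above 50% in either of two replicates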;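 note: 0% = protein plus DNA without compound and 100% = DNA alone without protein; higher means less MgrA bound to DNA so lower polarization; one replicate is shown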
Starred values were filed as active, the others as inactive; x = no result given; & = joins results of further samples. An excerpt (hit frequency here may not be typical).

Sa helicase inh	MgrA-DNA mod	Molecule
4	-2.4	Cc1cc(C)nc(N2CCCC(C(N)=O)C2)n1 (stereo unspecified)
7	1.1	CCS(=O)(=O)Nc1ccc(C(=O)NC(C)C)cc1
5	0.0	CCCN1CCN(CCNC(=O)Nc2ccccc2OC)CC1
10	1.7	CC1CCCCN1C(=O)N1CCOCC1 (stereo unspecified)
-12	x	CCS(=O)(=O)N1CCC2(CC1)N=C(c1ccc(C(C)(C)C)cc1)C(=O)N2
2	-3.8	CCCNC(=O)c1c(O)c2c([nH]c1=O)CCCC2
8	x	Cc1cc(C)n(C(=O)c2cc(C)[nH]n2)n1
16	3.2	COc1ccc(C(OC(=O)c2ccccc2)c2nccc3ccccc23)cc1 (stereo unspecified)
x	-1.3	CN(C)c1ccc(-n2[nH]nnc2=S)cc1
7	0.2	CSc1nc(N)nc2sc(C(=O)C34CC5CC(CC(C5)C3)C4)c(N)c12
-2	-2.3	CC(OC(=O)c1c(F)cccc1F)C(=O)Nc1cc(Cl)cc(Cl)c1 (stereo unspecified)
-5	x	CN(C)/C=C1/C(=O)N(c2ccc(Cl)cc2)C(=O)c2ccccc21
-9	x	C1CN=C(Nc2nn[nH]n2)C1
12	3.8	O=C(CSc1ccc(S(=O)(=O)N2CCOCC2)cc1)NC1CCCCC1
x	-0.5	CCO/C=C(\C#N)S(=O)(=O)Cc1ccco1
-7	-0.2	COc1ccc(Br)cc1S(=O)(=O)NCCCN1CCOCC1
10	2.3	Cc1ccc(NC(=O)CCCn2nnc3ccccc3c2=O)nc1
x	-0.4	Cc1cc(C)cc(N=C2NC(=O)/C(=C/c3ccccc3[N+](=O)[O-])S2)c1
14	x	N#CCCn1cc(/C=C2\NC(=S)N(c3ccccc3)C2=O)c(-c2ccccc2)n1
-11	x	CNC(=O)CSc1nc2ccccc2s1
10	x	O=C(Nc1nnc(SCc2ccccc2)s1)C1CC1
-8	-1.3	COc1ccc2c(c1)C(=O)C(C1(O)C(=O)Nc3ccccc31)CC2 (stereo unspecified)
x	-1.5	N#Cc1c(Cl)cccc1Oc1ccc(S(=O)(=O)N2CCOCC2)cc1
2	x	CC1C(=O)N2CCCc3cc(NC(=O)c4ccccc4)cc1c32 (stereo unspecified)
0	x	O=C1CCC2(C(=O)OCCCn3c(=O)[nH]c4ccccc43)Sc3ccccc3N12 (stereo unspecified)
2	0.2	Cc1ccc(C(C)N2CCN(S(=O)(=O)c3ccc4c(c3)OCCO4)CC2)cc1C (stereo unspecified)
x	3.4	COc1ccccc1OCCn1c(SCC(N)=O)nc2ccccc21
8	x	OCc1cnn(-c2ccccc2)c1-n1cccc1
10&-2	x	CCOC(=O)c1cnc2nc[nH]n2c1=O
x	-0.5	O=C(Nc1nc2ccsc2c(=O)s1)C1CCC1
-8	x	CC(C)n1nc(C(=O)N2CCC(=O)CC2)c2ccccc2c1=O
3	3.7	O=C(Oc1ccc(Cl)cc1Cl)c1ccc(Br)cc1
-16	x	Cc1ccc2nc(C(F)(F)F)cc(N3CCN(CCS(=O)(=O)c4ccccc4)CC3)c2c1
x	2.5	Cn1cc(C(=O)c2cccc(Cl)c2)cc1/C=N\O
18	-0.8	Brc1ccc(OCCSc2ncccn2)cc1
x	0.2	Cc1ccc(N2CCCC2=O)cc1
x	2.0	Cc1ccc(-c2ccnc3nc(-n4cccc4)nn23)o1
9	x	Cc1ccc(CN2CCC(CNC(=O)CCn3cccn3)CC2)cc1
x	5.2	COc1cc(C(=O)N(CCC#N)Cc2ccncc2)cc(OC)c1OC
-17	x	CC1(C)C2CCC1(CS(=O)(=O)N1CCN(c3ccccc3F)CC1)C(=O)C2 (stereo unspecified)
5	x	CCN1CCC(N(Cc2ccco2)C(=O)Nc2ccccc2C(F)(F)F)CC1
-16	x	Oc1[nH]c2ccccc2c1C1=NCCC1
3	-0.1	CC(C)Oc1ccc(C2CC(=O)N(C)C2=O)cc1 (stereo unspecified)
5	x	CNc1ccccc1C(=O)OCC(=O)c1ccc(F)cc1
4	1.2	CCc1c(C)sc(NC(=O)C#Cc2ccccc2)c1C#N
8	x	CCCCN=C1NN=C(c2ccc(Cl)cc2)C(C)S1 (stereo unspecified)
16	-29	Cn1c(SCCN2CCCC2)nnc1-c1ccncc1
13	x	CCOC(=O)c1cn(C)c(C(=O)OCC)c1O
x	0.4	CCOC(=O)c1c(CSc2ccccc2)n(C)c2cc(Br)c(OC(C)=O)cc12
-1	x	N#CCCn1cc(/C=C/C(=O)NCc2ccccc2)c(-c2cc3ccccc3o2)n1
-3	-1.6	CSc1nc2c(c(=O)n1Cc1ccccc1)C(C)(C)Cc1ccccc1-2
x	2.7	COc1cccc(OC)c1C(=O)NC(=O)Oc1c(F)cccc1F
11	x	CCCCC(=O)N1CC(=O)Nc2ccc(C)cc2C1c1ccccc1 (stereo unspecified)
-5	x	O=C(OC1CCOC1=O)c1cccc(S(=O)(=O)N2CCCC2)c1 (stereo unspecified)
-8	x	c1ccc(-c2csc(NC3=NCCCCC3)n2)cc1
-16	-1.6	O=S(=O)(c1ccc(F)c(F)c1)N1CCN(C/C=C/c2ccccc2)CC1
19	75*	O=C1C=CC(=O)C(Sc2nnnn2-c2ccccc2)=C1
11	x	O=S(=O)(c1cc(S(=O)(=O)C(F)(F)F)c(Cl)c(S(=O)(=O)C(F)(F)F)c1)C(F)(F)F
x	-2.2	CC(C)(Oc1ccc(C#N)cc1)C(=O)O
6	-0.9	Cc1ccc(C(=O)OCC2OC3C(Oc4c(C)c(=O)ncn43)C2OC(=O)c2ccc(C)cc2)cc1 (stereo unspecified)

Further results
Sa helicase inh	MgrA-DNA mod	Molecule
5	-1.4	COc1ccc(CN=CC2C(=O)N(c3nc4ccccc4s3)N=C2C(F)(F)F)cc1 (stereo unspecified)
-11	-1.5	O=c1[nH]c2ccccc2c2nc(-c3ccc(Cl)cc3)nn12
-28	x	Cc1cccc(Nc2nc(N3CCc4ccccc43)ncc2F)c1C
4	x	O=c1c2ccccc2nnn1CSc1nc2ccccc2c(=O)n1CCC1=CCCCC1
-1	x	CCN(Cc1ccc(OC)c(F)c1)C(=O)C1CCCO1 (stereo unspecified)
x	3.6	COc1cc2c(cc1OC)[C@@H]1C(=O)c3ccc4c(c3O[C@@H]1CO2)C=CC(C)(C)O4
2	x	O=C(O)CC1C(=O)NCCN1C/C=C/c1ccccc1 (stereo unspecified)
-25	x	CCC(C(=O)NC1CCCCC1)n1nc(C)c2c(C)n(-c3ccccc3)nc2c1=O (stereo unspecified)
x	0.6	Nc1c(Cl)cncc1Cl
6	-3.4	O=C(CCS(=O)(=O)c1ccccc1)N1CCc2ccccc21
12	x	C1=CCC(/C=N/Nc2nc3ccccc3o2)CC1 (stereo unspecified)
-26	-4.2	C=CCNc1nc2ccccn2c(=O)c1/C=C1\SC(=S)N(Cc2ccc3c(c2)OCO3)C1=O
9	x	Cc1ccc(/C=N/NC(=S)N2CCOCC2)cc1
12	2.5	CC(=O)Nc1cc(C(=O)NCCN(C)C)ccc1Sc1ccc(Cl)cc1
6	x	Cc1cc(C)cc(NS(=O)(=O)c2ccc3[nH]cc(C(=O)NCc4ccccc4)c(=O)c3c2)c1
5	0.1	CCOC(=O)c1ccccc1NC(=S)N1CC(C)CC(C)C1 (stereo unspecified)
7	-2.4	[N-]=[N+]=NCc1noc(-c2ccccc2)n1
2	x	COC(=O)c1nc(Cl)c(Cl)c(Cl)c1Cl
19	x	CN1CCN(CCCNC(=O)Cn2cccc2C(=O)c2ccccc2)CC1
x	0.2	Cc1ccc(CN2C(=O)C3CCCN3c3ncccc32)cc1 (stereo unspecified)
0	0.7	Cc1cc(C)cc(NC(=O)C2CCN(c3nc(C)cc(C)n3)CC2)c1
14	0.3	Cc1ccc(-c2cc3c(n2-c2ccccc2)CC(C)(C)CC3=O)cc1
-4	x	COc1ccc(C(=O)OCC(=O)c2cc3c4c(c2)CC(=O)N4CCC3)cc1S(=O)(=O)N(C)C
-13	2.5	CN(C)c1ccc(-n2nc3ccc4ccccc4c3n2)cc1
-6	x	CCOC(=O)c1[nH]c(C)c(C(=O)OCCN2C(=O)c3ccccc3C2=O)c1C
12	-1.7	CN/C=C1\C(=O)C(C)(C)Oc2ccc3ccc(=O)oc3c21
x	0.5	CSc1nc2ccccc2n2cccc12
-11	x	CC1(C)Cc2c(sc3ncn4nc(-c5ccco5)nc4c23)C(C)(C)N1
12	-3.2	NC(=O)C(C(N)=O)C1CCS(=O)(=O)C1 (stereo unspecified)
16	0.1	CC1(C)CC(=O)c2sc(NC(=O)CN3CCN(C(=O)c4ccco4)CC3)nc2C1
8	x	Cc1ccccc1CSc1[nH]c(=O)ncc1C
-4	2.8	CCOc1ccc(-c2cn3c(c2C)-c2cccn2CC3)cc1
6	-0.3	CCOc1ccc(NC(=O)NC23CC4CC(CC(C4)C2)C3)cc1
15	x	O=C1c2cccnc2C(=O)N1Cc1ccc(S(=O)(=O)Nc2cccnc2)cc1
11	0.8	CCOc1ccc2c(=O)c(Oc3ccc(OC)cc3)coc2c1
8	-0.5	C=CCNc1nc(-c2ccccc2)cs1
3	x	COc1ccc(-c2c(NC(=O)C(C)C)n(C)c3ccccc3c2=O)cc1
22	-1.1	O=C(CNc1ccccc1)c1ccc(Cl)cc1
6	x	COc1ccc(OC)c(CNC(=O)Cn2ncc3c(=O)oc4ccc(C)cc4c32)c1
-20	x	CCCN1C2=S=C(CSc3nc4ccccc4n3CCC)C(=O)N2c2ccccc21
17	-1.3	O=C(Cc1c(F)cccc1Cl)Nc1ccc2nc3n(c(=O)c2c1)CCCCC3
10	x	CC1CCN(S(=O)(=O)c2ccc(C(=O)Nc3nc4c(s3)COc3ccccc3-4)cc2)CC1
4	-1.8	CCCNc1nc(SCc2ccc(Cl)cc2)nnc1C
0	x	O=C(CN1C(=O)c2ccccc2C1=O)c1ccc(OC(F)F)cc1
-24	x	O=C(Nc1ccccc1C(F)(F)F)c1cccn(OCc2ccccc2)c1=O
-1	-0.2	OC1(C(F)(F)F)CC(/C=C/c2ccccc2)=NO1 (stereo unspecified)
-9	-1.6	CN(C)CC1CCCCC1OC(=O)c1ccccc1Cl (stereo unspecified)
-11	x	CCOC(=O)Cn1c(=O)c(=O)n(C)c2c1c(C)nn2-c1ccccc1
-3	1.2	Nc1cc2c(cc1C(O)(C(F)(F)F)C(F)(F)F)OCCO2
4	x	CC1(O)COc2ccccc2O1 (stereo unspecified)
x	-2.7&4.0&-0.6	c1coc(CNc2ncnc3nc[nH]c23)c1
3	1.1	COc1ccc(C(=O)Nc2ccccc2)cc1S(=O)(=O)N1CCN(c2ccccc2)CC1
1	x	N#C/C(=C\Nc1ccc(OC(F)(F)F)cc1)C(=O)c1ccco1
x	0.6	CN(C)c1nnnn1-c1cccc(C(F)(F)F)c1
19	1.9	O=C(Nc1ccccc1)C(Cc1ccccc1)N1C(=O)C2C3C=CC(C3)C2C1=O (stereo unspecified)
x	-2.2	COc1ccc(C(=O)NC2Cc3ccccc3C2)cc1OC
14	-0.1	Cc1cc(N2CCCC2)nc(SCC(=O)c2ccccc2)n1
-1	x	CCC(=O)Nc1c(C(=O)OC)sc2ccccc12
3	1.4	Cc1ccc(C2=[N+]([O-])C3(CCCCC/C3=N\NC(N)=S)N(O)C2(C)C)o1 (stereo unspecified)
11	x	CCn1c(=O)cc(OCC(=O)NCCCN2CC(C)CC(C)C2)c2ccccc21 (stereo unspecified)

Quoted from the results shown (five entries):
Sa helicase inh	MgrA-DNA mod	Molecule
x	-2.2	COc1ccc(C(=O)NC2Cc3ccccc3C2)cc1OC
14	-0.1	Cc1cc(N2CCCC2)nc(SCC(=O)c2ccccc2)n1
-1	x	CCC(=O)Nc1c(C(=O)OC)sc2ccccc12
3	1.4	Cc1ccc(C2=[N+]([O-])C3(CCCCC/C3=N\NC(N)=S)N(O)C2(C)C)o1 (stereo unspecified)
11	x	CCn1c(=O)cc(OCC(=O)NCCCN2CC(C)CC(C)C2)c2ccccc21 (stereo unspecified)

(next part)
Sa helicase inh	MgrA-DNA mod	Molecule
33	x	CC1CCCCC1NC(=O)c1ccc[nH]c1=S (stereo unspecified)
x	1.8&4.0	CC(C)OC(=O)C(C)(C)Oc1ccc(C(=O)c2ccc(Cl)cc2)cc1
13	x	COC(=O)c1cc(=O)c2cc(C)ccc2o1
3	x	CCN(CC)S(=O)(=O)c1ccc(/C=C/C(=O)Nc2ccc(-n3cnnn3)cc2)cc1
0	1.4	COc1ccc(C(F)(F)F)cc1NC(C)=O
8	2.3	CC(=O)N(Cc1ccc(C(C)C)cc1)c1ccc2oc(-c3ccccc3)nc2c1
23	-0.5	COc1ccccc1OCC(=O)Nc1oc(-c2ccccc2)c(-c2ccccc2)c1C#N
12	-0.9	CCOC(=O)C1=C(C)NC2=C(C(=O)c3ccccc32)C1c1cccnc1 (stereo unspecified)
-11	x	N#Cc1c(N)nc2c(c1N)CC(=O)N2c1ccccc1

An excerpt from above in order of heavy-atom count, largest number first:
Sa helicase inh	MgrA-DNA mod	Molecule
3	x	CCN(CC)S(=O)(=O)c1ccc(/C=C/C(=O)Nc2ccc(-n3cnnn3)cc2)cc1
9	x	Cc1ccc(CN2CCC(CNC(=O)CCn3cccn3)CC2)cc1
-8	-1.3	COc1ccc2c(c1)C(=O)C(C1(O)C(=O)Nc3ccccc31)CC2 (stereo unspecified)
5	0.0	CCCN1CCN(CCNC(=O)Nc2ccccc2OC)CC1
x	2.0	Cc1ccc(-c2ccnc3nc(-n4cccc4)nn23)o1
13	x	CCOC(=O)c1cn(C)c(C(=O)OCC)c1O
x	0.2	Cc1ccc(N2CCCC2=O)cc1
